PABP FP inh: PABP-poly(A) binding inhibition; P11940; PABP-poly(A) RNA binding, fluorescence polarization; inhibition, % at 35 µM; 1% of 290,000 active; AID 2014;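 active = 50% or more with normal probe brightness, or confirmed in later tests; inconclusive = above 50% with abnormal brightness, or retests that disagree; inactive = below 50% or failed in later tests; about a fifth of its hits are not listed in these tables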;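 also: calls also rest on retests at 20 µM and on dose response follow-up; controls were probe without protein and protein plus probe with vehicle; some compounds called inactive have numbers as strong as hits; many hits fall short of the cut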
Rce1 inh: inhibitors of yeast Ras-converting enzyme; calls only; 0.27% of 290,000 active; yeast membranes, quenched prenylated peptide cleavage fluorescence; AID 2563;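 active = fall in fluorescence gain of 50% or more versus controls, with final raw signal at or below 3038400; inconclusive = same 50% fall but final raw signal above 3038400; inactive = fall in fluorescence gain under 50%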;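 also: plate controls were neutral control wells for no effect and wells lacking membranes for full effect; tested at 10 µM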
Target sequence (Q03530 whole entry, looked up): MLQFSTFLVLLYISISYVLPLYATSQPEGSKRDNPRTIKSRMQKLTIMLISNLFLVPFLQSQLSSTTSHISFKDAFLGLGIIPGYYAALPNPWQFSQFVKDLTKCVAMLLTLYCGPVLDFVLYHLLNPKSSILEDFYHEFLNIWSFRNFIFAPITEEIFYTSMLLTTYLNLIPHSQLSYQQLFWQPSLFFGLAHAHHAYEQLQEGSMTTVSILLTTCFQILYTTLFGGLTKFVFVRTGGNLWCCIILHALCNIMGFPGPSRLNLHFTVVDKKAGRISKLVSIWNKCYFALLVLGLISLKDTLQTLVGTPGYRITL
CSC inhib: blocks cancer stem cells | 1.1% of 300,000 active | inhibition, % at 7.5 µM | cancer stem cell-like cells viability, luminescence;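 active = mean at 75% or more and at least half the replicates too; inconclusive = mean and replicates disagree; tested in HMLE shEcad cells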;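 also: 0% = median of negative and 100% = median of positive control wells; the first replicate is given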
Yeast UUG start: yeast start codon fidelity modulation. S. cerevisiae UUG-firefly luciferase reporter, luminescence/redox ratio. activity score, % at 18.7 µM. 0.13% of 350,000 active;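 active = replicate mean at a twofold rise or more, about +100% in these data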;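 also: firefly luciferase made from a UUG start codon reports start codon fidelity; reporter light over untreated wells divided by growth signal over untreated wells; some hits fall short of that in this replicate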
MT1-MMP act inh: blocks activation of human MT1-MMP | 0.061% of 360,000 active | P50281 | GFP/RFP ratio change, % at 20 µM | HT1080 RFP-PRO-GFP cells, GFP/RFP ratio fluorescence, overnight; percent of plate control window, DMSO zero;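 active = GFP/RFP ratio change of at least 30% with cell ATP level not reduced by more than half and red fluorescence within 50% of control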; also: strong numbers were not always called active
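Assay system: HT1080 cells carrying an RFP-PRO-GFP reporter | Dosing: Single dose of 20 µM compound, 1% DMSO final | Incubation: Cells overnight before dosing, compound overnight, 37 °C, 5% CO2 | Evaluation: GFP/RFP fluorescence ratio | Control set: DMSO and RFP-L50D-GFP cell wells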
HIV Env fusion: blocks HIV Env-driven cell-cell fusion; inhibition, % at 12.3 µM; 1.1% of 360,000 active; HeLa-JRFL Env/CEM21 cell fusion, luciferase;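 active = mean replicate inhibition score of at least 50 and every replicate individually at or above 50; inconclusive = only one of the two criteria met; inactive = mean below 50 and not all replicates reaching 50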;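 also: 0% = plate neutral controls and 100% = maraviroc near 300 nM; one replicate is shown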
eIF4H FP inh: inhibitors of RNA binding by human eIF4H; 0.94% of 290,000 active; inhibition, % at 35 µM; eIF4H fluorescence polarization binding assay;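 active = 50% or more with normal probe brightness, or confirmed in later tests; inconclusive = above 50% with abnormal brightness, or retests that disagree; inactive = below 50% or failed in later tests; about a fifth of its hits are not listed in these tables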;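 also: calls also rest on retests at 20 µM and on dose response follow-up; 0% = protein and probe with vehicle and 100% = probe without protein; strong numbers were not always called active; many hits fall short of the cut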
eIF4H FP inh retest: also measured in eIF4H FP inh; calls as there; inhibition, %; compound at 20 µM; confirmation average;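 mean of two retest wells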
PABP FP inh retest: recorded beside PABP FP inh, whose call it bears; inhibition, %; compound at 20 µM; confirmation repeats;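 mean of two retest wells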
MT1-MMP act inh RFP: further read-out of MT1-MMP act inh, marked with its call; RFP signal change, %; measured here: RFP expression control read;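 0 = vehicle wells; hits needed this value within 50% of zero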
* = called active by the depositor; i = inactive; ? = inconclusive; / = no result given; + = active, no number; & = joins results of further samples.

SMILES	PABP FP inh	Rce1 inh	CSC inhib	Yeast UUG start	MT1-MMP act inh	MT1-MMP act inh RFP	HIV Env fusion	eIF4H FP inh	others
O=C(NCc1ccccn1)[C@@H]1C[C@H]1[C@@H](NP(=O)(c1ccccc1)c1ccccc1)c1ccccc1	-1	i	21	-2	-3	1	-46	-7
Cc1cc2cc(CN(C(=O)C3CC3)C3CCCC3)c3nnnn3c2cc1C	2	i	-5	7	-8	-2	-61	-2
COc1ccc(N2CCN(C(c3cc4cc(C)ccc4[nH]c3=O)c3nnnn3Cc3ccccc3)CC2)cc1 (centres undefined)	5	i	-12	-5	-9	-9	-208	6
O=C(O)c1ccc(OC(F)(F)C(F)C(F)(F)F)cc1 (centres undefined)	-1	i	-11	-12	-2	2	-13	0
O=[N+]([O-])c1ccc(Sc2nnnn2-c2ccccc2)c(Cl)c1	0	i	64	12	5	-6	18	-12
CCCn1nc(C(=O)Nc2nc3ccccc3[nH]2)c2ccccc2c1=O	25	i	3	-19	21	-3	-25	0
Cc1cccc(S(=O)(=O)NC(=O)C2(C)CCN2C(=O)c2sccc2C)c1 (centres undefined)	/	/	/	-11	2	0	2	/
c1ccc(-c2cc3c(N4CCN(c5ncccn5)CC4)ncnc3s2)cc1	-11	i	-11	/	-3	-2	-1	-15
COC(=O)C1CN(C(=O)C(C)Oc2ccc(F)cc2)c2ccccc2O1 (centres undefined)	-2	i	-6	9	-4	1	0	-1
Cc1ccc(S(=O)(=O)/N=C(\N)Nc2nc(C)c3ccccc3n2)cc1	-17	i	0	/	3	-1	-20	-17
CCCCc1nnc(NC(=O)CSc2nc(=O)cc(N)n2-c2cccc(C)c2)s1	13	i	-2	-16	2	4	-60	4
N/C(=N/O)c1nc(N2CCCC2)nc(N2CCCC2)n1	/	/	/	-24	-2	1	-14	/
CCc1sc(C(=O)NC(C)C2CCCO2)cc1Br (centres undefined)	10	i	0	-11	-2	-1	2	-14
O=C(Cc1ccccc1)Nc1ccc(NC(=O)c2ccco2)nc1	-8	i	16	-12	8	11	-79	-4
Cc1ccc(Oc2ncccc2C(=O)NCC(=O)O)cc1	7	i	13	/	0	-3	-3	-6
CC(C)CN(C(=O)COC(=O)c1ccc(-c2ccccc2)cc1)C1CCS(=O)(=O)C1 (centres undefined)	-1	i	17	-4	-2	2	-16	-2
CC1(C)c2ssc(=S)c2-c2ccccc2N1C(=O)c1ccco1	-2	i	2	-8	-40	-9	30	4
COC(=O)c1c(NC(=O)C2CCCCC2)sc2c1CCN(C(C)C)C2	-6	i	22	-14	1	4	-17	-19
O=C(CSc1nc2ccccc2[nH]1)Nc1ccc(F)c(F)c1	8	i	2	-12	4	-10	2	-10
COc1cc(C(C#N)N2CCCCC2)ccc1O (centres undefined)	-1	i	-6	-25	1	1	/	2

3 compounds out of the list, ordered by length of the SMILES, largest number first.
SMILES	PABP FP inh	Rce1 inh	CSC inhib	Yeast UUG start	MT1-MMP act inh	MT1-MMP act inh RFP	HIV Env fusion	eIF4H FP inh	others
O=C(NCc1ccccn1)[C@@H]1C[C@H]1[C@@H](NP(=O)(c1ccccc1)c1ccccc1)c1ccccc1	-1	i	21	-2	-3	1	-46	-7
O=C(Cc1ccccc1)Nc1ccc(NC(=O)c2ccco2)nc1	-8	i	16	-12	8	11	-79	-4
COc1cc(C(C#N)N2CCCCC2)ccc1O (centres undefined)	-1	i	-6	-25	1	1	/	2

Reprinted at random: three entries already listed.
SMILES	PABP FP inh	Rce1 inh	CSC inhib	Yeast UUG start	MT1-MMP act inh	MT1-MMP act inh RFP	HIV Env fusion	eIF4H FP inh	others
O=[N+]([O-])c1ccc(Sc2nnnn2-c2ccccc2)c(Cl)c1	0	i	64	12	5	-6	18	-12
COC(=O)c1c(NC(=O)C2CCCCC2)sc2c1CCN(C(C)C)C2	-6	i	22	-14	1	4	-17	-19
CC1(C)c2ssc(=S)c2-c2ccccc2N1C(=O)c1ccco1	-2	i	2	-8	-40	-9	30	4

New compounds follow:
SMILES	PABP FP inh	Rce1 inh	CSC inhib	Yeast UUG start	MT1-MMP act inh	MT1-MMP act inh RFP	HIV Env fusion	eIF4H FP inh	others
Cc1ccccc1OCC(=O)Nc1ccccc1CO	0	i	-2	-5	3	-3	/	2
O=C(CN1C(=O)NC2NC(=O)NC21)NN=C1CCCC1 (centres undefined)	-2	i	-13	/	0	0	/	-5
CC(=O)OCN(C#N)c1nc(N(C)C)nc(N(C)C)n1	-5	i	-13	-10	2	3	-28	3
Cc1ccc(-n2nnc(-c3cccnc3Cl)n2)cc1	-1	i	-1	-17	0	2	/	6
O=S(=O)(N/N=C/c1ccc2c(c1)OCCO2)c1ccc(Cl)cc1	10	i	-10	/	-7	-1	/	-2
CCCS(=O)(=O)N1CCN(C(=O)COc2ccc(-c3ccccc3)cc2)CC1	7	/	-7	-19	-1	-7	7	0
CCc1ccccc1NC(=O)C1CCN(C(=O)c2cccs2)CC1	-1	i	-1	-17	0	5	-11	-7
Cc1ccc(NS(=O)(=O)c2ccc(NS(=O)(=O)c3cccs3)cc2)cc1	-9	i	-1	-8	-1	-2	/	-12
CCc1ccc2[nH]c(=O)c(CN(CCN3CCOCC3)C(=O)Nc3ccccc3F)cc2c1	-2	i	-1	2	6	7	/	0
CCN(CC(=O)NC(C)C)C(=O)C(CCSC)NC(=O)c1cccc(C)c1 (centres undefined)	3	i	2	-21	-2	-2	-27	-2
CCCC(=O)C1=C(O)C(C(=O)OC)C(C)(C)CC1=Nc1cccc2ccccc12 (centres undefined)	8	i	-2	-5	-10	-8	/	7
C[N+](C)(C)CC(O)CC(=O)O (centres undefined)	/	i	-10	-19	2	5	i	/
C/C(=N/NC(=O)C(=O)N/N=C(/C)c1ccccc1)c1ccccc1	16	i	-11	/	/	/	?	7
COc1ccc2oc(C(=O)NCc3ccccc3CN3CCCC3)c(C)c2c1	/	/	/	-3	2	0	18	/
CC(=O)Nc1sc2c(c1C#N)CC(C)(C)NC2(C)C	-2	i	-5	-4	-1	2	-6	-5
CN(C)S(=O)(=O)c1cccc(NC(=O)/C=C/c2ccccc2[N+](=O)[O-])c1	-18	i	-8	/	0	-5	-4	0
Cc1cccc(N2CCN(C(=O)Cc3ccc(Br)cc3)CC2)c1C	-7	i	19	-11	-3	-9	/	-5
CCOC(=O)c1c(C)[nH]c(C)c1S(=O)(=O)NCCCc1ccco1	10	i	-4	/	2	-4	-5	3
CCCc1cc(=O)[nH]c(SCC(=O)N(CC(C)C)C2CCS(=O)(=O)C2)n1 (centres undefined)	3	i	-1	-21	0	5	-16	-3
CCn1c(=O)c(-[n+]2ccccc2)c(O)c2ccccc21	1	i	-10	-11	4	-5	-37	-2

Structures listed so far with a COOH group:
SMILES	PABP FP inh	Rce1 inh	CSC inhib	Yeast UUG start	MT1-MMP act inh	MT1-MMP act inh RFP	HIV Env fusion	eIF4H FP inh	others
O=C(O)c1ccc(OC(F)(F)C(F)C(F)(F)F)cc1 (centres undefined)	-1	i	-11	-12	-2	2	-13	0
Cc1ccc(Oc2ncccc2C(=O)NCC(=O)O)cc1	7	i	13	/	0	-3	-3	-6
C[N+](C)(C)CC(O)CC(=O)O (centres undefined)	/	i	-10	-19	2	5	i	/

Going on with the list.
SMILES	PABP FP inh	Rce1 inh	CSC inhib	Yeast UUG start	MT1-MMP act inh	MT1-MMP act inh RFP	HIV Env fusion	eIF4H FP inh	others
CCC(=O)NC(Cc1ccccc1)c1ccc2c(c1)OCCCO2 (centres undefined)	-7	i	-3	-4	-4	-4	19	0
O=c1[nH]c2cc3c(cc2cc1CN(CCc1ccccc1)Cc1nnnn1CC1CCCO1)OCO3 (centres undefined)	120*	/	/	0	-4	-2	13	?	PABP FP inh retest=124*
Cc1ccccc1NC(=O)c1ccc(Cl)c(NC(=O)c2ccncc2)c1	5	i	/	/	9	0	10	3
CC[C@]12c3[nH]c4cc(-c5ccco5)ccc4c3CCN1C(=O)[C@@H](CC(=O)NCc1ccco1)C[C@@H]2C(=O)N1CCN(C(=O)c2ccco2)CC1	/	/	/	6	-5	-2	-115	/
O=C(NCCCN1CCOCC1)c1ccc2c(c1)N(Cc1c(F)cccc1Cl)C(=O)c1ccccc1S2	13	i	-6	-7	-13	-10	5	-6
CCOC(=O)c1[nH]c2ccc(Br)cc2c1NC(=O)CCN1CCCC(C)C1 (centres undefined)	16	i	-8	/	/	/	/	-3
CC(C)CN1CCN(Cc2cccc3nccnc23)CC1CCO (centres undefined)	-7	i	0	/	-2	2	-6	9
COc1ccccc1NC(=S)NCc1ccc(S(N)(=O)=O)cc1	17	i	-5	-16	3	1	19	2
N#Cc1c(C(F)(F)F)cc(-c2cccs2)nc1SC(C(=O)O)c1ccccc1 (centres undefined)	/	i	4	-2	-19	-1	-15	/
CCOC(=O)N(C)C[C@@H]1OCc2cn(nn2)CCCC(=O)N([C@@H](C)CO)C[C@H]1C	/	/	/	-9&-14	4	7	-4	/
Cc1cccc(N(C)c2cc(C)nc3nc(C)nn23)c1	-4	i	-4	-22	-1	0	4	3
O=S(=O)(NC1CCCCC1Nc1ccccc1)c1ccccc1 (centres undefined)	3	i	/	/	-1	-2	13	4
Cn1cccc1Cc1nnc(SCC(=O)N2CCCCCC2)n1-c1ccc(F)cc1	13	i	26	3	-1	2	24	0
O=C(C=Cc1ccccn1)c1ccccc1	/	/	/	-8	23	-6	-29	/
Cc1cc(C)cc(NC(=O)CSc2nnc(CN3CCOCC3)n2C)c1	-9	i	-3	0	0	4	10	-8
O=C(NCCCNCc1ccccc1)c1ccncc1	-1	i	-9	-20	1	0	5	-7
CCCCOc1ccc(C(=O)NCC(=O)OCCCOC(=O)CNC(=O)c2ccc(OCCCC)cc2)cc1	/	/	/	-9	-2	1	-6	/
CCc1nc(Nc2ccncc2)c2oc3ccccc3c2n1	2	+	8	-1	-15	-6	-74	-4
COCCN(C(=O)Nc1ccccc1)c1ccccc1C	6	i	/	-17	4	8	3	3
O=C1NC(=O)C(=Cc2ccccc2[N+](=O)[O-])S1	/	/	/	-26	1	-8	-11	/
Nc1nnc(SCc2cccnc2)s1	11	i	0	-4	-1	-1	4	-2
Cc1cccc(N2CCN(S(=O)(=O)c3c(C)noc3/C=C/N(C)C)CC2)c1C	-1	i	29	/	0	3	9	-19
COc1cc(CC(=O)Nc2ccc3nc(C)sc3c2)cc(OC)c1OC	86	i	/	-11	4	0	-2	5	eIF4H FP inh retest=2;PABP FP inh retest=2
COc1ccc2c(c1)c1ccccc1n2C	-6	i	-9	-16	-1	0	-176	0
CCOc1cc(/C=C(\C#N)C(=O)Nc2ccccc2C(=O)O)ccc1OC(=O)c1ccc(C)cc1	13	i	-4	-20	-10	0	1	-2
COc1ccc(C2=NN(Cc3c(F)cccc3Cl)C(=O)CC2)cc1	-6	i	5	/	-5	-3	23	-7
O=[N+]([O-])c1cccc(/C=C/c2ccccn2)c1	0	i	-3	12	0	1	15	-5
COCCNC(=O)c1nc2c(nnn2Cc2cc(C)ccc2C)c(=O)[nH]1	6	i	-3	-8	8	4	/	-4
CC1(C)CC2CC(C)(CN2S(=O)(=O)c2cccc(C(=O)O)c2)C1 (centres undefined)	/	/	/	-4	0	5	7	/

Bioassay records from PubChem.

A portion of the library; the hit share may differ from the screen's.
